HPGD block – inhibitors of human 15-hydroxyprostaglandin dehydrogenase (HPGD) | P15428 | purified HPGD, NADH fluorescence kinetic, PGE2 substrate | Potency, µM, for the others: at the highest dose activity change, negative = inhibition, most hits filed as inhibitors | actives 4.3% (n = 150,000) | AID 894; active = well fitted inhibition curve with a large enough effect (not every such curve was filed as active); inconclusive = small, poorly fitted or top-dose-only effect, or another doubt; inactive = no such curve, though single readings can be large or run the other way;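 also: top concentration of the series not given in the record; plate controls included wells without enzyme; inactives centre near -10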
Target sequence (P15428 whole entry, looked up): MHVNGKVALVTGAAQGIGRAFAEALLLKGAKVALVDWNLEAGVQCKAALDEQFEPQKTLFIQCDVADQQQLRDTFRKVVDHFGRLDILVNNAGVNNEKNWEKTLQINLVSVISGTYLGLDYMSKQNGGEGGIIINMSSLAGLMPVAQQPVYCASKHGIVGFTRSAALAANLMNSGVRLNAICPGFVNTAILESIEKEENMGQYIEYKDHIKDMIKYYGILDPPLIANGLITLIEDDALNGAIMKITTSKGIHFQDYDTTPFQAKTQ
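NADH formation kinetics: reaction with 30 uM PGE2 and 1 mM NAD+ (final), 20 nM enzyme, Tris-HCl pH 8 with Tween 20, after 15 min compound preincubation at room temperature. Fluorescence change, last versus first of five reads.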
An asterisk follows results filed as active; ? = inconclusive. % is scaled to controls: 0 for no effect and ±100 for the full control effect; potency is read from the fitted curve at half-maximal effect.

| molecule | HPGD block |
| --- | --- |
| CC1CCCC(C)N1C(=O)CN1C(=O)C(C)(C)Oc2ccc(C(=O)NC3CCCC3)cc21 (stereo not drawn) | -20% |
| CC(C)(C)/C=N/NC(=O)CNC(=O)c1ccc2c(c1)OCCO2 | -11% |
| O=C(Nc1ccccc1)OCc1cc(-c2ccc(Cl)cc2)on1 | -7% |
| COc1ccc2[nH]cc(CCNc3nc(-c4ccccc4CN(C)C)nc4ccccc34)c2c1 | -18% |
| CN(CC(=O)NCc1ccc2c(c1)OCO2)S(=O)(=O)c1ccc(Br)s1 | ? |
| CC1=CC(C)C2C(=O)N(c3ccccc3)NC(=O)C2C1 (stereo not drawn) | -13% |
| CNc1ccccc(-c2ccc3ccccc3n2)c1=O | -6% |
| Cc1ccc(-c2ccc(C(=O)Nc3ccccc3)o2)c2ccccc12 | ? |
| O=C(c1ccc(N2CCOCC2)nc1)N1CCCCC1 | ? |
| Oc1oc(-c2ccccc2)nc1C=NCc1ccncc1 | -7% |
| O=C(Nc1cccc(F)c1)N1CC[C@@]2(CCCN(C(=O)c3ccco3)C2)C1 | 5% |
| O=C(C1CCCN(S(=O)(=O)c2cccc3nonc23)C1)N1CCN(c2ccccc2)CC1 (stereo not drawn) | -30% |
| O=C(NCc1ccc(N2CCCC2=O)cc1)Nc1ccccc1 | -22% |
| Cc1ccc(N2CCN(CCCCN3C(=O)C4CCCN4C3=O)CC2)cc1 (stereo not drawn) | -11% |
| COCc1cc(=O)[nH]c(=S)[nH]1 | -16% |
| Cc1ccc2[nH]c(=O)c(CN(Cc3ccccc3Cl)C(=O)N3CCOCC3)cc2c1 | -5% |
| CCn1c(-c2ccccc2)ccc(C#N)c1=O | ? |
| C=CCn1cc(C(=O)OC)c(=O)c2cc(S(=O)(=O)N(CC)CC)ccc21 | ? |
| CCOC(=O)C(=Cc1ccc(F)cc1)C(=O)OCC | -3% |
| Cc1noc(C)c1CN1C(=O)NC2(CCc3ccccc3C2)C1=O (stereo not drawn) | -5% |
| Cc1cccc(CNc2ncncc2-c2cccc(NS(C)(=O)=O)c2)c1 | 16µM* |
| CCOC(=O)c1[nH]c(COC(=O)c2ccccc2NC(=O)c2ccco2)c(C(=O)OCC)c1C | ? |
| CCCCCC(=O)Nc1ccc(N2CCN(C(=O)CCC)CC2)cc1 | -14% |
| Cc1nc(-c2ccccn2)sc1C(=O)Nc1ccc(F)cc1F | -9% |
| Clc1ccc(Cc2nnc(-c3cccs3)o2)cc1 | ? |

Next section, overlapping the part above by 2 compounds.
| molecule | HPGD block |
| --- | --- |
| Cc1nc(-c2ccccn2)sc1C(=O)Nc1ccc(F)cc1F | -9% |
| Clc1ccc(Cc2nnc(-c3cccs3)o2)cc1 | ? |
| CCOC(=O)Cn1nnnc1CN(Cc1ccccc1)Cc1cc2cc(CC)ccc2[nH]c1=O | -31% |
| CC(=O)Nc1ccc(S(=O)(=O)NCC(=O)OC(C)c2ccccc2Cl)cc1 (stereo not drawn) | -10% |
| O=C(NCC1COc2ccccc2O1)c1ccco1 (stereo not drawn) | -26% |
| COc1ccc(C(=O)Nc2nc3nc(-c4ccccc4)cc(=O)n3[nH]2)cc1 | -14% |
| CC(C)OCCCNC(=O)CNC(=O)c1cccs1 | -7% |
| CC(C)CC(N)C(=O)NC(C)C(=O)O (stereo not drawn) | -13% |
| CCc1nnc(NC(=O)CSc2nnc(-c3cccnc3)n2CC)s1 | -9% |
| COC(=O)c1ccccc1NC(=O)CNc1cc(Cl)ccc1N1CCOCC1 | -24% |
| COc1ccc(/C=N\NC(=O)O)cc1 | -4% |
| COC(=O)/C(=C/c1cccnc1)NC(=O)c1ccccc1 | 0% |
| CC(=O)SCCC(=O)Nc1ccccc1 | -9% |
| CCc1ccc(/C=C2\SC(=S)N(CCCC(=O)Nc3nccs3)C2=O)cc1 | -13% |
| O=C(NC1CCN(C(=O)N2c3ccccc3Sc3ccccc32)CC1)c1ccco1 | -4% |
| CCOC(=O)c1ccc2c(c1)nc(SCC(=O)c1cc3ccccc3o1)n2CC | -22% |
| C=CCn1c(N)cc(=O)nc1SCC(=O)Nc1ccccc1 | -9% |
| O=P(CCCCCCCCCP(=O)(c1ccccc1)c1ccccc1)(c1ccccc1)c1ccccc1 | -3% |
| CS(=O)(=O)N(CCc1ccccc1)CC(=O)N1CCN(Cc2ccc3c(c2)OCO3)CC1 | -17% |
| Cc1cc(=O)c2c(C)nn(-c3ccccc3)c2[nH]1 | -16% |
| COCCNS(=O)(=O)c1ccc(-c2ccc(C)cc2)cc1 | ? |
| Cc1nn(C)cc1NC(=O)c1ccc(Br)o1 | -15% |
| Cc1ccc(C(=O)N(NC2=NS(=O)(=O)c3ccccc32)S(=O)(=O)c2ccc(C)cc2)cc1 | 1% |
| O=C(NCc1cccnc1)c1noc2c1CCCCC2 | -5% |
| Cc1ccc(C(O)c2nc3ccccc3n2C(C)C)cc1 (stereo not drawn) | -10% |
| O=C(Cn1nnc2ccccc2c1=O)NCCc1ccc(F)cc1 | -16% |
| COc1ccc(OCC(O)CN(CCO)CC(O)Cn2ccc3ccccc32)cc1 (stereo not drawn) | -7% |
| Nc1nc(N)nc(CCCc2nc(N)nc(N)n2)n1 | -2% |
| Cc1ccccc1C(=O)NC(=S)Nc1sc2c(c1C#N)CCCC2 | -24% |
| C/C(=N/N1CCN(c2ccccn2)CC1)c1ccc([N+](=O)[O-])cc1 | -10% |
| COc1ccc(CCNC(=O)CCCn2c(SCC#N)nc3ccccc3c2=O)cc1OC | -6% |
| c1ccc(-c2ncc3c(ccc4ccccc43)n2)cc1 | -21% |
| CCCCNC(=O)CSc1nc2ccccc2c(=O)n1CCNC(C)=O | -2% |
| O=C(Nc1ccc(F)cc1F)c1cccnc1 | -16% |
| COc1ccc(C(=O)N2CCC(n3c(C)nc4cc(F)ccc43)CC2)cc1OC | -11% |
| C1CCCC(N2CCNCC2)CC1 | -1% |
| Cc1ccc(C(=O)NC2CC(C)(C)NC(C)(C)C2)c(C)c1 | -8% |
| Cn1c(=O)c2c(ncn2CCSS(=O)(=O)O)n(C)c1=O | -8% |
| Cc1cc(NC(=O)CN2CCN(c3ncccn3)CC2)no1 | -2% |
| Cc1cc(/C=c2/sc3nc4ccccc4n3c2=O)c(C)n1-c1ccccn1 | -11% |
| CCn1cc(C(=O)Nc2ccc(-n3cnnn3)c(OC)c2)c(=O)c2ccc(C)nc21 | -12% |
| CCOc1ccc(OCC)c(-c2c(=O)n(OCc3ccccc3C(=O)OC)c3ccccc3[n+]2[O-])c1 | -8% |
| O=C(CNC(=O)c1cc2ccccc2o1)NCc1cccs1 | -15% |
| Cc1nn(-c2ccc(F)cc2)c2sc(C(=O)N3CCCCCC3)cc12 | 16µM* |
| O=c1c2sc(-c3ccccc3)cc2nc2n1CCC2 | -17% |
| Clc1ccccc1CONc1ncnc2nonc12 | -7% |
| CCCn1c(SCC(=O)Nc2nc3c(s2)CCCC3)nc2c1c(=O)n(C)c(=O)n2C | -8% |
| CC(=O)c1ccc(OCCCC(=O)NC2=NCCS2)cc1 | ? |
| CCOC(=O)c1ccccc1Nc1cc(C)nc2nc(C)nn12 | 2.2µM* |
| O=C(c1cc2c(s1)CCCC2)N1CCN(S(=O)(=O)c2ccccc2C(F)(F)F)CC1 | -6% |
| Cc1cc(NC(=O)CSc2nnc(-c3ccc(Br)o3)n2Cc2ccccc2)no1 | -5% |
| O=C(CC12CC3CC(CC(C3)C1)C2)NCC(=O)N1CCc2ccccc2C1 | -11% |

Following part:
| molecule | HPGD block |
| --- | --- |
| Clc1cccc(-c2ccc(/C=N/n3cnnc3)o2)c1Cl | ? |
| O=C1CC(c2ccc(F)c(Br)c2)C2=C(CCCC2=O)N1 (stereo not drawn) | -12% |
| COc1cc2ncnc(NCc3ccccc3C)c2cc1OC | ? |
| O=C(N[C@@H](Cc1ccccc1)C(=O)NC1CCCCC1)c1ccco1 | -11% |
| Cc1ccc(S(=O)(=O)NCCCCCC(=O)NC(C)(C)CO)cc1 | -9% |
| Cc1ccc(C(=O)N2c3ccccc3N(Cc3ccccc3)C(=O)C2(C)C)cc1 | -12% |
| CCOC(=O)c1sc(Nc2nc3c(OC)cccc3s2)nc1C | ? |
| CCOC(=O)Cc1cc(=O)n2[nH]c(C)cc2n1 | -14% |
| O=c1c2ccccc2c2ccccc2c(=O)n1Cc1cccnc1 | -8% |
| CCSc1nc(O)c(CC)c(=O)n1C(C)CC (stereo not drawn) | -4% |
| Oc1ccc(/C=N/Nc2nccnc2Cl)cc1 | -15% |
| O=C(c1csc2ccccc12)N1CCCCCC1 | 0.013µM* |
| Cc1ccc(-c2cc(C(=O)N3N=C(C(F)F)CC3(O)C(F)F)c3ccccc3n2)cc1C (stereo not drawn) | ? |
| c1ccc2c(c1)Cn1nnnc1-2 | -17% |
| CNC1=CN(O)C(c2ccccc2)=c2cc(Cl)ccc2=N1 | -14% |
| Cc1cc([N+](=O)[O-])nn1CCC(=O)NC1CCCCCC1 | -8% |
| Cc1ccc(C)c(C(=O)CN2C(=O)c3ccccc3S2(=O)=O)c1 | -8% |
| Cc1ccc(/C=C/C(=O)N2CCCN(C(=O)/C=C/c3ccc(C)cc3)CC2)cc1 | -8% |
| COc1ncc2nc(-c3cc(F)cc(F)c3)c(=O)n(C[C@H]3CCCO3)c2n1 | -12% |
| CCN(CC)CCn1c(NC(=O)c2ccc(Cl)cc2)nc2ccccc21 | ? |
| Cc1ccc(Nc2nc3c(c(=O)[nH]2)CCCC3)cc1 | -7% |
| O=C(c1ccc(Cl)cc1)c1ccccc1C(=O)N1CCOCC1 | -6% |
| COC(=O)c1ccc(C23CC2(C(NP(=O)(c2ccccc2)c2ccccc2)c2ccccc2)C3)cc1 (stereo not drawn) | -19% |
| O=C1NC(c2ccncc2)Nc2sc3c(c21)CCCC3 (stereo not drawn) | ? |
| COc1ccc([N+](=O)[O-])cc1NC(=O)C1CCCCC1C(=O)O (stereo not drawn) | -13% |

HPGD block, entries above that show a hit
| molecule | HPGD block |
| --- | --- |
| Cc1cccc(CNc2ncncc2-c2cccc(NS(C)(=O)=O)c2)c1 | 16µM* |
| Cc1nn(-c2ccc(F)cc2)c2sc(C(=O)N3CCCCCC3)cc12 | 16µM* |
| CCOC(=O)c1ccccc1Nc1cc(C)nc2nc(C)nn12 | 2.2µM* |
| O=C(c1csc2ccccc12)N1CCCCCC1 | 0.013µM* |

Other structures
| Compound | HPGD block |
| --- | --- |
| Cn1c(=O)[nH]c(=O)c2c1nc(N1CCCCCC1)n2Cc1cccc2ccccc12 | -18% |
| Cc1cc(-c2ccco2)n(CC(=O)O)n1 | -11% |
| Cc1ccc(C(=O)Nc2ccc(O)cc2C(=O)O)cc1C | -12% |
| Cn1c(CN2CCOCC2)nc2cc(NC(=O)c3ccc(F)cc3)ccc21 | -3% |
| COc1cc2c(cc1NC(=O)COC(=O)/C=C/c1ccccc1)oc1ccccc12 | -10% |
| Cc1cc(NC(=O)CSc2nc3c(c(=O)n2-c2ccccc2)SC(C)C3)no1 (stereo not drawn) | -5% |
| Cc1cc(/C=C(/C#N)c2cccc(F)c2)c(C)n1-c1cccnc1 | -14% |
| NC(=O)CSc1nnc(-c2cccnc2)n1Cc1ccccc1 | -19% |
| CCn1nc(NC(=O)c2ccncc2)c2cc3cccc(C)c3nc21 | 0% |
| Cc1ccc(C)c(N(C(=O)Cn2nnc(-c3cccs3)n2)C(C(=O)NC2CCCC2)c2ccncc2)c1 (stereo not drawn) | -9% |

Sorted by value in HPGD block (falling): 3 from the list above
| Compound | HPGD block |
| --- | --- |
| Cc1nn(-c2ccc(F)cc2)c2sc(C(=O)N3CCCCCC3)cc12 | 16µM* |
| CCOC(=O)c1ccccc1Nc1cc(C)nc2nc(C)nn12 | 2.2µM* |
| O=C(c1csc2ccccc12)N1CCCCCC1 | 0.013µM* |

Later entries
| Compound | HPGD block |
| --- | --- |
| O=C(CSc1n[nH]c(-c2ccncc2)n1)Nc1ccccn1 | -14% |
| Cc1ccc(S(=O)(=O)N2CCCN(S(=O)(=O)c3ccc4ccccc4c3)CC2)cc1 | -15% |
| COc1ccc(/C=N/S(=O)(=O)c2cccs2)cc1 | 1% |
| COc1ccc(N2C(=O)C3ON(C4SC(=S)N(C)C4(C)C)C(c4ccc([N+](=O)[O-])cc4)C3C2=O)cc1 (stereo not drawn) | -5% |
| CC1CCN(C(=O)c2ccc3c(c2)OCCO3)CC1 | 0.4µM* |
| COc1cccc(CNC(=O)CCNC(=O)Cn2ccc3ccccc3c2=O)c1 | -18% |
| CCC1=C2CC[C@H]3C(=O)N(c4ccccc4)C(=O)[C@H]3[C@H]2[C@@]2(C)C(=O)N(CC(=O)OC)C(=O)N2C1=O | -6% |
| Cc1cc2nc3c(=O)n(C4CCCCC4)c(=O)[nH]c3nc2cc1N | -18% |
| Cc1ccc(-c2cn(S(=O)(=O)c3cccc4nsnc34)nc2N)cc1 | -9% |
| COc1ccc(CNc2cc(C)nc3ncnn23)c(OC)c1 | 32µM* |
| CCOc1ccc(S(=O)(=O)NNC(=O)c2cc3ccccc3o2)cc1 | -2% |
| CCc1nc(SCC(=O)Nc2sc(C)c(C)c2C(=O)OC)c2ccccc2n1 | -4% |
| Cc1cc2ncn(S(=O)(=O)N(C)C)c2cc1C | -18% |
| CC(C)CNC(=O)[C@H](Cc1ccccc1)NC(=O)c1ccco1 | -7% |
| CC(C)C(=O)N1CCC(CN=CC2=C(O)CC(C)(C)CC2=O)CC1 | -6% |
| CCOc1ccc(NC(=O)CC2C(=O)N(CC)C(=S)N2CCNC(C)=O)cc1 (stereo not drawn) | -6% |
| COc1ccc(S(=O)(=O)N2CCN(C)CC2)cc1C | -6% |
| C=CCOn1c(C)c(C(C)=O)c2c3nonc3ccc21 | ? |
| CC(C(=O)NC(=O)NCc1ccccc1)N1C(=O)c2ccccc2C1=O (stereo not drawn) | -1% |
| CCS(=O)(=O)C(=C1NCCO1)S(=O)(=O)CC | 0% |
| CC#CCN1c2ccccc2[C@]23C[C@@H](C(=O)OC)N(C(=O)c4ccco4)C2=NC(C(=O)OC)=C(C(=O)OC)[C@H]13 | -5% |

Screens from PubChem BioAssay.

This is a subset; rates above refer to the full screens.
